2A StopGo: High Throughput Screening for Foot and Mouth Disease Virus Antivirals; 410,000 compounds, 1.2% hits; Potency, µM (titrated, usually from 57.9 µM), without a hit: at the highest dose signal change, negative = less light; AID 1159524, 2015; human cells with a luciferase reporter of 2A StopGo recoding; control for the full effect not named in the record; active = well fitted falling curve with a large enough effect; inconclusive = small, poorly fitted or top-dose-only effect; inactive = no such curve, though single readings can be large or run the other way; tested in HEK293T cells; further: on the % scale 0 is the no-effect control and ±100 the full control effect; nearly all actives have a fitted effect of over 45% in size; luciferase light after 4 h
Cruzain Triton: qHTS Assay for Promiscuous and Specific Inhibitors of Cruzain (with detergent); AID 1478, 2009; 200,000 compounds, 0.43% hits; purified cruzain, Z-FR-AMC fluorescence, 0.01% Triton; Cruzipain (Trypanosoma cruzi), P25779; Potency, µM, without a hit: max response, negative = inhibition, usual class: inhibitors;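 further: plate controls were neutral wells for no effect and buffer without enzyme for full effect; nearly all actives have a fitted effect of over 40% in size; top concentration of the series not given in the record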
Target sequence (P25779 123-467 limits assumed): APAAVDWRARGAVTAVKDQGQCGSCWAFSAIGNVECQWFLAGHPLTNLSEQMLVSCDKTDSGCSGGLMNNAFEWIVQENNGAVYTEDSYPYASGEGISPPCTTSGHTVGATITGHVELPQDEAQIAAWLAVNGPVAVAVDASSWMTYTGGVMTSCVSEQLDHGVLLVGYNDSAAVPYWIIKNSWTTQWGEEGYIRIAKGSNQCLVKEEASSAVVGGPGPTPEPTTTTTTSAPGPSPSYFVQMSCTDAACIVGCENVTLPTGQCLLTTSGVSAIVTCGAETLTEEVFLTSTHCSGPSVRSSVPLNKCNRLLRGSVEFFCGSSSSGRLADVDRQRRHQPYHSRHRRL
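15 min RT preincubation of 1.5 nM cruzain with compound, then 2 uM Z-FR-AMC added; kinetic AMC fluorescence, 60 s delta. Triton X-100 0.01%, pH 5.5.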
Cruzain noTriton: qHTS Assay for Promiscuous and Specific Inhibitors of Cruzain (without detergent); Cruzipain (Trypanosoma cruzi), P25779; 200,000 compounds, 2.3% hits; Potency, µM, for inactives: max response, negative = inhibition, most hits filed as inhibitors; purified cruzain, Z-FR-AMC fluorescence, no detergent;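 further: plate controls were enzyme without inhibitor for no effect and buffer without enzyme for full effect; nearly all actives have a fitted effect of over 40% in size; top concentration of the series not given in the record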
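Detergent-free condition (0.00005% Triton X-100) in acetate buffer pH 5.5 with DTT. 1.5 nM enzyme and compound were pre-mixed 15 min, then 2 uM Z-FR-AMC substrate added; reaction progress from fluorescence change between first and third reads (60 s).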
Lassa entry inh: qHTS for Inhibitors of binding or entry into cells for Lassa Virus. Lassa virus pseudotype entry inhibition, cell reporter; control for the full effect not named in the record. Potency, µM (doses to about 37.9 µM), without a hit: top-dose activity change, negative = inhibition, hits mostly inhibitors. 300,000 compounds, 1.2% hits; active means well fitted inhibition curve with a large enough effect; inconclusive means small, poorly fitted or top-dose-only effect, or effect the other way; inactive means flat fitted curve, though single readings scatter; tested in HEK293 cells; further: on the % scale 0 is the no-effect control and ±100 the full control effect; nearly all actives have a fitted effect of over 50% in size; luciferase read-out
SARS PLpro yeast: qHTS of Yeast-based Assay for SARS-CoV PLP | S. cerevisiae expressing SARS-CoV PLpro, growth rescue; control for the full effect not named in the record | Potency, µM (highest dose often 32.9 µM), for inactives: top-dose activity, positive = growth rescue | 330,000 compounds, 0.19% hits | AID 485353, 2010; active means well fitted rising curve with a large enough effect; inconclusive means small, poorly fitted or top-dose-only effect; inactive means no such curve, though single readings can be large or run the other way; further: 0% is about no effect; nearly all actives have a fitted effect of over 55% in size; growth read by luminescence after 48 h
MARV entry inh: qHTS for inhibitors of binding or entry into cells for Marburg Virus. 300,000 compounds, 1.8% hits. Potency, µM (series often up to 37.8 µM), for the others: at the highest dose activity change, negative = inhibition, usual class: inhibitors. Marburg virus pseudotyped entry inhibition, cell reporter; control for the full effect not named in the record; about a third of the inactives were read at about 46 µM; active = well fitted inhibition curve with a large enough effect; inconclusive = small, poorly fitted or top-dose-only effect, or effect the other way; inactive = flat fitted curve, though single readings scatter; tested in HEK293 cells; about a fifth of its hits are not listed in these tables; further: on the % scale 0 is the no-effect control and ±100 the full control effect; luciferase read-out
RE007 growth inh: qHTS Assay for Inhibitors of the HIV-1 protein Vpr; 360,000 compounds, 0.21% hits; Potency, µM (doses to about 92.2 µM), inactives show at the top dose activity change, negative = less growth; AID 651644, 2012; S. pombe RE007 Vpr strain, BacTiter-Glo ATP luminescence, 24 h; control for the full effect not named in the record; active = well fitted falling curve with a large enough effect; inconclusive = small, poorly fitted or top-dose-only effect; inactive = no such curve, though single readings can be large or run the other way;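 further: on the % scale 0 is the no-effect control and ±100 the full control effect; nearly all actives have a fitted effect of over 50% in size; the assay follows cell death caused by Vpr and the record does not say whether a fall means rescue or toxicity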
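Fission yeast RE007 carrying one integrated HIV-1 vpr copy, seeded at OD 0.01 in PMG+AL medium with 23 nL pinned compound. Grown 24 h at 30 degrees; viability read by BacTiter-Glo luminescence after 5 min.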
NS1 inh: qHTS Assay for Inhibitors of Influenza NS1 Protein Function. S. cerevisiae slowed by influenza A NS1, growth recovery by OD600. Potency, µM (highest dose often 46.1 µM), inactives show at the top dose activity, positive = more growth. 270,000 compounds, 0.4% hits. AID 2326, 2010; active means well fitted rising curve with a large enough effect; inconclusive means small, poorly fitted or top-dose-only effect; inactive means no such curve, though single readings can be large or run the other way; further: nearly all actives have a fitted effect of over 50% in size
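In this qHTS, NS1 from influenza A is expressed in budding yeast, where it slows growth. Cells are switched from glucose to 2% galactose medium (pH 6.0, -URA), treated with compound, and growth recovery is read at OD600.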
Active calls of the source: *; [ ] = another dose, or the depositor's remark. Unless noted, the call rests on the fitted dose curve; in most records, active means well fitted curve in the direction sought with a large enough effect; inconclusive means small, poorly fitted or top-dose-only effect, or another doubt; inactive means no such curve, though single readings can be large; an effect the other way counts as inactive or inconclusive. Potency means the concentration at half of the fitted maximal effect.

How did O=C(Nc1cc(S(=O)(=O)N2CCOCC2)ccc1Cl)C(=O)c1c(-c2ccccc2)cc2ccccn12 do in these assays?
2A StopGo: 23%; Cruzain Triton: -0.9%; Cruzain noTriton: inconclusive; Lassa entry inh: inconclusive; SARS PLpro yeast: -51%; MARV entry inh: inconclusive; RE007 growth inh: 14%[3.69 µM]; NS1 inh: -61%

What do the screens show for `CCc1cc2c(=O)n(Cc3ccco3)c(SCC(=O)NCC3CCCO3)nc2s1` (centres undefined)?
2A StopGo: 25µM*; Lassa entry inh: inconclusive; SARS PLpro yeast: 3%; MARV entry inh: inconclusive; RE007 growth inh: 7%; NS1 inh: 9%

What do the screens show for `CN(CC(=O)Nc1cccc(F)c1)C(=O)c1ccc(N2C(=O)c3ccccc3C2=O)cc1`?
2A StopGo: 16%; Lassa entry inh: 2%; SARS PLpro yeast: -2%; MARV entry inh: inconclusive; RE007 growth inh: -6%

Results for CCn1c(SCC(=O)Nc2ccc(C)cc2)nnc1-c1cnccn1 ?
2A StopGo: 5%; SARS PLpro yeast: inconclusive; RE007 growth inh: 12%; NS1 inh: -1%

How did COc1ccccc1NC(=O)COC(=O)CCn1c(C)csc1=O do in these assays?
2A StopGo: -5%; Lassa entry inh: 25%; SARS PLpro yeast: 2%; MARV entry inh: inconclusive; RE007 growth inh: 10%

How did CCOc1ccc(NC(=O)C(NS(=O)(=O)c2cccc3nsnc23)c2ccccc2)cc1 (centres undefined) do in these assays?
2A StopGo: 22%; Cruzain Triton: -3.0%; Cruzain noTriton: -8%; Lassa entry inh: -27%[46.1 µM]

Results for COc1ccc(Nc2c3c(nc4nncn24)CCC3)cc1OC ?
2A StopGo: -9%; Cruzain Triton: -1.3%; Cruzain noTriton: -8%; Lassa entry inh: inconclusive; MARV entry inh: -12%[46.1 µM]

Results for CCC1CCCCN1C(=O)CCS(=O)(=O)c1ccccc1 (centres undefined) ?
2A StopGo: 0%; Lassa entry inh: 37%[46.1 µM]; SARS PLpro yeast: -1%; MARV entry inh: inconclusive; RE007 growth inh: -13%; NS1 inh: 10%

How did CC(=O)N1CC(C)Oc2ccc(S(=O)(=O)NC(CC(=O)O)c3cc(C)ccc3C)cc21 (centres undefined) do in these assays?
2A StopGo: -3%; SARS PLpro yeast: -3%; RE007 growth inh: 6%; NS1 inh: inconclusive

How did Cc1ccc2c(CN(C)Cc3cccc(Cl)c3)cc(=O)oc2c1C do in these assays?
2A StopGo: 3%; Lassa entry inh: inconclusive; SARS PLpro yeast: -4%; MARV entry inh: inconclusive; RE007 growth inh: -6%; NS1 inh: -31%

What do the screens show for `Oc1[nH]c2ccccc2c1N=Nc1ccccc1F`?
2A StopGo: 45%[activator]; Cruzain Triton: -4.1%; Cruzain noTriton: -8%; Lassa entry inh: 14%; SARS PLpro yeast: 12%; MARV entry inh: inconclusive; RE007 growth inh: -2%; NS1 inh: 3%

Results for C=CCN(C(=O)c1csnn1)C(C(=O)NCc1ccccc1)c1c(F)cccc1Cl (centres undefined) ?
2A StopGo: 18%; Lassa entry inh: -24%[46.1 µM]; SARS PLpro yeast: -1%; MARV entry inh: inconclusive; RE007 growth inh: 0%; NS1 inh: inconclusive

What do the screens show for `CN(C)S(=O)(=O)c1cccc(NC(=S)NC(=O)c2ccco2)c1`?
2A StopGo: 86%[activator]; Lassa entry inh: inconclusive; SARS PLpro yeast: -14%; MARV entry inh: 3%; RE007 growth inh: 3%

What do the screens show for `CN(C)c1ccc(CNc2nc(-c3ccco3)nn2S(C)(=O)=O)cc1`?
2A StopGo: 9%; Cruzain Triton: -4.4%; Cruzain noTriton: 10%; Lassa entry inh: inconclusive; MARV entry inh: inconclusive

What do the screens show for `Cc1ccc(-c2nc3ccccc3c(=O)n2-n2cccc2)cc1`?
2A StopGo: -7%; Cruzain Triton: 2.2%; Cruzain noTriton: -8%; Lassa entry inh: -9%; SARS PLpro yeast: 13%; MARV entry inh: 4%; RE007 growth inh: 0%; NS1 inh: 4%

How did O=C(CN1CCN(C(=O)C2CCCO2)CC1)Nc1ccc(F)cc1 (centres undefined) do in these assays?
2A StopGo: -15%; SARS PLpro yeast: -2%; RE007 growth inh: 4%; NS1 inh: 11%

How did CCc1ccc(OCc2nc(-c3ccc(OC)cc3)no2)c(Br)c1 do in these assays?
2A StopGo: -1%; Cruzain Triton: -2.3%; Cruzain noTriton: -21%; Lassa entry inh: -8%[46.1 µM]

Results for CC(Oc1ccc(Br)cc1)c1nc2c3ccccc3nc(=S)n2[nH]1 (centres undefined) ?
2A StopGo: -14%; Lassa entry inh: inconclusive; SARS PLpro yeast: -3%; MARV entry inh: inconclusive; RE007 growth inh: 1%

What do the screens show for `CSc1ncc(CN2CCCC(C(=O)c3cccc(Cl)c3)C2)cn1` (centres undefined)?
2A StopGo: -17%; Lassa entry inh: 1%[46.1 µM]; SARS PLpro yeast: 1%; MARV entry inh: inconclusive; RE007 growth inh: -4%; NS1 inh: -2%

What do the screens show for `COC(=O)c1cc2n(n1)CCN(Cc1ccc(F)cc1)C2=O`?
2A StopGo: -7%; Cruzain Triton: 5.3%; Cruzain noTriton: 4%; Lassa entry inh: 16%; SARS PLpro yeast: -1%; MARV entry inh: 26%; RE007 growth inh: 14%; NS1 inh: 1%

Reprinted at random: two compounds from above.
How did O=C(CN1CCN(C(=O)C2CCCO2)CC1)Nc1ccc(F)cc1 (centres undefined) do in these assays?
2A StopGo: -15%; SARS PLpro yeast: -2%; RE007 growth inh: 4%; NS1 inh: 11%

What do the screens show for `CN(C)S(=O)(=O)c1cccc(NC(=S)NC(=O)c2ccco2)c1`?
2A StopGo: 86%[activator]; Lassa entry inh: inconclusive; SARS PLpro yeast: -14%; MARV entry inh: 3%; RE007 growth inh: 3%

More compounds:
How did CCCOc1c(Cl)cc(C(=O)Nc2ccc3c(c2)OCO3)cc1OCC do in these assays?
2A StopGo: inconclusive; Cruzain Triton: -6.6%; Cruzain noTriton: -16%; Lassa entry inh: inconclusive; SARS PLpro yeast: -1%; MARV entry inh: inconclusive; RE007 growth inh: -9%; NS1 inh: 1%

How did Cc1cc(-n2c(C)nc3ccccc3c2=O)ccc1NC(=O)c1cccc([N+](=O)[O-])c1C do in these assays?
2A StopGo: -4%; Cruzain Triton: -0.4%; Cruzain noTriton: -1%; Lassa entry inh: inconclusive

How did c1ccc(N2CCCCC2)c(Nc2nc3ccccc3n3cnnc23)c1 do in these assays?
2A StopGo: -27%; Lassa entry inh: inconclusive; SARS PLpro yeast: -1%; MARV entry inh: inconclusive; RE007 growth inh: 5%; NS1 inh: -5%

How did CC(c1ccc(F)cc1)n1c(-c2cccs2)n[nH]c1=S (centres undefined) do in these assays?
2A StopGo: -14%; Lassa entry inh: 5%; SARS PLpro yeast: 0%; MARV entry inh: 2%[46.1 µM]; RE007 growth inh: -3%; NS1 inh: 10%

What do the screens show for `COc1ccc(C(CCO)NC(=O)c2cccs2)cc1OC` (centres undefined)?
2A StopGo: -18%; Lassa entry inh: 10%; SARS PLpro yeast: -2%; MARV entry inh: 29%[46.1 µM]; RE007 growth inh: -1%; NS1 inh: 2%

What do the screens show for `CCc1ccc(OCC(=O)N/N=C/c2cc([N+](=O)[O-])ccc2N2CCOCC2)cc1`?
2A StopGo: inconclusive; Cruzain Triton: -4.6%; Cruzain noTriton: 16%; Lassa entry inh: inconclusive; SARS PLpro yeast: -10%; MARV entry inh: inconclusive; RE007 growth inh: 10%; NS1 inh: 28%

Results for O=C(CN1CCN(S(=O)(=O)/C=C/c2ccccc2)CC1)Nc1ccc(N2CCOCC2)cc1 ?
2A StopGo: 1%; SARS PLpro yeast: -2%; RE007 growth inh: 10%; NS1 inh: -4%

What do the screens show for `CC(C)(CCC(=S)N1CCOCC1)C1CCCCC1`?
2A StopGo: 14%; Lassa entry inh: -2%[46.1 µM]; SARS PLpro yeast: 13%; MARV entry inh: 4%[46.1 µM]; RE007 growth inh: 0%; NS1 inh: 13%

How did CCOC(=O)CSCC(=O)Nc1cc(C)ccc1C do in these assays?
2A StopGo: -16%; Cruzain Triton: 1.2%; Cruzain noTriton: -4%; Lassa entry inh: 13%; SARS PLpro yeast: 1%; MARV entry inh: 40%; RE007 growth inh: -5%; NS1 inh: 2%

What do the screens show for `O=C(N/N=C/c1c[nH]c2ccccc12)c1cccc(Cl)c1`?
2A StopGo: 56%[activator]; SARS PLpro yeast: 1%; RE007 growth inh: 2%; NS1 inh: 1%

Results for O=S(=O)(c1ccc(F)c(F)c1F)N1CCN(C(=S)NCc2ccccc2)CC1 ?
2A StopGo: 10%; Lassa entry inh: -18%[46.1 µM]; SARS PLpro yeast: -6%; MARV entry inh: inconclusive; RE007 growth inh: 14%; NS1 inh: 14%

Results for Cc1c(-c2ccc(Br)cc2)c(=O)oc2ccc(OC(=O)N3CCOCC3)cc12 ?
2A StopGo: -29%; Cruzain Triton: -6.0%; Cruzain noTriton: inconclusive; Lassa entry inh: -48%[46.1 µM]

How did CCCCc1n[nH]c(=S)n1Cc1ccc(Cl)cc1 do in these assays?
2A StopGo: -19%; Lassa entry inh: -3%[46.1 µM]; SARS PLpro yeast: 19%; MARV entry inh: inconclusive; RE007 growth inh: -2%

Results for COc1ccccc1-n1c(=O)c(C#N)c(-c2ccc([N+](=O)[O-])cc2)c2cc(C(=O)c3cc(F)ccc3O)cnc21 ?
2A StopGo: 6%; Lassa entry inh: inconclusive; SARS PLpro yeast: 0%; MARV entry inh: 4%[46.1 µM]; RE007 growth inh: -2%; NS1 inh: 9%

Source: PubChem BioAssay

This is a random part of the collection; overall some 4.7% were active at least once.
